Screens (PubChem BioAssay)
KCNQ2 inh: KCNQ2 channel blockers in CHO-K1 cells – cell-based, FluxOR thallium flux, B-score, primary screen (AID 2156); O88943; 20 min; active compounds read low; only compounds with negative scores are shown here; some inactives read as strong as hits; B-score at 10 µM; 1.1% of 310,000 active;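 active = fluorescence ratio B-score at most minus 3 library SDs, with starting brightness B-score within 2 library SDs, cut at about -5.5 in these data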
Target sequence (O88943 whole entry, looked up): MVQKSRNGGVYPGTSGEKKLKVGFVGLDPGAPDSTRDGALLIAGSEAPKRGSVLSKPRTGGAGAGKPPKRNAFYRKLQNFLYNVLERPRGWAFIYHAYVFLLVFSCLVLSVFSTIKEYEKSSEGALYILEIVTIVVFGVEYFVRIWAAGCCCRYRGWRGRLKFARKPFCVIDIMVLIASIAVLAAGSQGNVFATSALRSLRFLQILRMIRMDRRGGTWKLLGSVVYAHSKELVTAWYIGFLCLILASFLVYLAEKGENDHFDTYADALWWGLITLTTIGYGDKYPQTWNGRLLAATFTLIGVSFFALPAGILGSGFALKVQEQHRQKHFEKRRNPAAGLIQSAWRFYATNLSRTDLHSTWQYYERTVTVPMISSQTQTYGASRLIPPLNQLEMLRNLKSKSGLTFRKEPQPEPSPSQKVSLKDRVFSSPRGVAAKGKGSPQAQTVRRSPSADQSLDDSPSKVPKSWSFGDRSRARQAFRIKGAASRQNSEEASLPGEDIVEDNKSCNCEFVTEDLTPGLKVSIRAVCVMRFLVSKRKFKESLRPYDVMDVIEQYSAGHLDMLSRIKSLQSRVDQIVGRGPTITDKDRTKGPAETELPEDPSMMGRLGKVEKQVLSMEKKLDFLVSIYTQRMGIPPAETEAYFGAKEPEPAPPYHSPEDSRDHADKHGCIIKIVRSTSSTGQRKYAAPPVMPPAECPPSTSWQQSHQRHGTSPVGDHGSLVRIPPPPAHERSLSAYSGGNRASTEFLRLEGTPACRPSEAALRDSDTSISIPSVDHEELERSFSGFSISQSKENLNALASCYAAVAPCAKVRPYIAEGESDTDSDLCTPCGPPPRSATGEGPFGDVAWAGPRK
KCNQ2 inh baseline: further read-out of KCNQ2 inh, marked with its call; B-score; measured here: initial fluorescence intensity artifact check;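 brightness before thallium and not channel activity; 0 = typical well and far values either way flag optical interference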
The depositor's hits bear a star; i = inactive.

Values in the order: KCNQ2 inh, KCNQ2 inh baseline
- Cc1cc(C)c(C(=O)C(C)OC(=O)c2ccccn2)cc1C (stereo not drawn)
  i, 1.2
- O=C(NC(N1CCOCC1)C(Cl)(Cl)Cl)c1ccc(F)cc1 (stereo not drawn)
  i, -1.8
- Cc1ccc(S(=O)(=O)Nc2nc(C)cc(NCCN)n2)cc1
  i, 1.8
- COc1ccc(N(CC(=O)N2CCc3ccccc32)S(=O)(=O)c2c(C)nn(C)c2C)cc1
  i, -1
- CCCN(CC(=O)Nc1ccccc1OC)C(=O)c1cc2ccccc2o1
  i, 1.1
- CCc1nc2c(c(=O)[nH]1)C(CC)(CC)Cc1ccccc1-2
  i, -0.83
- CCOc1cc(/C=N/n2cnnc2)ccc1O
  i, 1.8
- CSC(SC)=C(C(C)=O)C(=O)c1ccc(C)cc1
  i, 0.72
- COc1ccc(C(CNC(=O)c2cc3ccccc3cc2O)N2CCOCC2)cc1 (stereo not drawn)
  i, 0.5
- COc1ccc(/C=C2\CCn3c2nc2ccccc2c3=O)cc1OC
  i, -0.73
- CC(=O)N(C(C)=O)c1c(N2CCOCC2)c2ccccc2oc1=O
  i, 1
- CCc1ccc(NC(=O)CCCNC(=O)Cn2cnc3sc(C)c(C)c3c2=O)cc1
  i, 0.26
- CCN(CC)CCCNC(=O)c1cn(CCOC)c(=O)c2c1c1ccccc1n2C
  i, -0.4
- O=C(CCNC(=O)C1CCN(S(=O)(=O)c2ccc(F)cc2)CC1)NCc1ccc(Cl)cc1
  i, -0.87
- COc1ccc(OC)c(C2CC(=O)N3CN(c4ccccc4)CSC3=C2C#N)c1 (stereo not drawn)
  i, -0.6
- CCOC(=O)C1=C(C)Nc2sc(C(=O)c3ccc(C)cc3)c(N)c2C1c1ccc(C(=O)OC)cc1 (stereo not drawn)
  i, -1.6
- CC(C)(C)OC(=O)NCCCC[C@H](NC(=O)[C@H](Cc1c[nH]c2ccccc12)NC(=O)OCc1ccccc1)C(=O)O
  i, -1.3
- CC(C(Sc1ccccc1N)c1ccccc1)[N+](=O)[O-] (stereo not drawn)
  i, -1.6
- CCn1c(SCC(=O)Nc2nc(-c3ccc(C)cc3)cs2)nnc1-c1ccccc1
  i, 0.02
- Cc1cc(C)c(C#N)c(SCCS(=O)(=O)c2ccc(Cl)cc2)n1
  i, 0.4
- COCCn1cnc2c1c(=O)n(CC(=O)O)c(=O)n2Cc1ccccc1
  i, -0.03
- Cn1c(-c2ccc(Br)cc2)cnc1NCc1ccc(C#N)cc1
  i, -0.78
- Cc1noc(C)c1S(=O)(=O)N1CCC(C(=O)c2ccccc2)CC1
  i, -0.32
- COc1ccc(NC(C)=O)cc1NC(C)C(=O)Nc1cc(C(F)(F)F)ccc1N1CCOCC1 (stereo not drawn)
  i, -1.8
- CCNc1ccc(C(=O)OCC)cc1NC(=O)c1cc(S(=O)(=O)N2CCOCC2)ccc1C
  i, -0.02
- COc1ccc(C(=O)N=c2sc3ccccc3n2C)cc1OC
  i, -0.04
- O=C(c1ccco1)N1CCN(c2nc(C3CC3)nc3c2nnn3Cc2ccccc2Cl)CC1
  i, -1.2
- CCN(C(=O)c1cn(CC)c(=O)c2cc(OC)c(OC)cc12)c1ccccc1C
  i, -0.49
- CCN(CCCNC(=O)CN(C)S(=O)(=O)c1cccc2nsnc12)c1cccc(C)c1
  i, 0.88
- CC1(C)CC(NCc2ccncc2)CC(C)(C)N1
  i, -0.26
- O=C(CCn1c(=O)c2cccn2c2ccc(F)cc21)NCc1cccc(F)c1
  i, 0.83
- CN(C(=O)c1ccccc1)C1c2c(ccc3ccccc23)OCC1CO (stereo not drawn)
  i, -0.15
- COc1ccc(OC)c2c1CC(C)(C)NC2=O
  i, -1.2
- CCOc1ccc(NC(=O)N[C@@H](Cc2ccccc2)C(=O)O)cc1
  i, 0.21
- O=C(COC(=O)c1cc(S(=O)(=O)N2CCOCC2)ccc1Cl)Nc1ccc2c(c1)OCO2
  i, 0.17
- Cc1ccnc(NCc2cccc3ccccc23)c1
  -6.9*, 0.62*
- COc1ccc(/C=C(\C#N)C(=O)c2cccn2C)cc1
  i, -0.91
- CCN1CCN(c2ncnc3c2cnn3-c2ccccc2)CC1
  i, 3.9
- O=C(Nc1ccc(F)cc1F)c1cc2nc3c(c(C(F)(F)F)n2n1)CCCC3
  i, 0.57
- CC(C)c1c(O)nc(SCCOc2ccc(Cl)cc2)[nH]c1=O
  i, 0.09
- Cn1cc(C(=O)c2cccc(Cl)c2)cc1C#N
  i, 0.57
- O=C(Cc1ccc(S(=O)(=O)N2CCOCC2)s1)Nc1ccccc1N1CCOCC1
  i, 0.06
- CC(C)COCC(O)CC(Cc1ccccc1)C(=O)NN (stereo not drawn)
  i, 1.8
- CC(=O)c1ccc(S(=O)(=O)NC2CCSc3ccccc32)cc1 (stereo not drawn)
  i, 1.5
- O=C(NNC(=S)Nc1ccc(Cl)cc1Cl)c1ccncc1
  i, 0.65
- CCOC(=O)c1c(C)[nH]c(C)c1C(=O)COC(=O)c1cccc(S(=O)(=O)N(CC)CC)c1
  i, -2.6
- N#CCc1nc2n(n1)Cc1ccccc1-2
  i, -1.5
- COc1ccc(CNC(=O)COC(=O)CCOc2ccc(C)cc2)cc1
  i, 2.7
- Cc1cc2oc(=O)cc(CN(C)Cc3ccccc3Cl)c2cc1C
  i, -0.01
- CCC(Sc1nc(C)cc(C)n1)C(=O)Nc1cc(C)on1 (stereo not drawn)
  i, 1.5
- CCC(=O)Nc1nnc(SCC(=O)Nc2ccc(F)cc2)s1
  i, 1
- COc1ccc(CCNC(=O)c2cc(-c3ccncc3)nc3c(Cl)cccc23)cc1OC
  i, 1.8
- Cc1ccccc1CSc1nnc(-c2ccccc2)c(=O)[nH]1
  i, 0.05
- CC1CC(C)(C)N2C(=O)C(=C(C#N)C#N)c3cccc1c32 (stereo not drawn)
  i, 0.08
- CCOc1ccccc1CN1CCNC(=O)C1CC(=O)N(C)Cc1cnccn1 (stereo not drawn)
  i, -2.6
- CCOC(=O)CSc1nc(N)c(C(=O)Nc2ccc(N(C)C)cc2)s1
  i, 0.02
- O=C(c1cc2ccccc2oc1=O)N(c1ccc(Cl)cc1)C1C=CS(=O)(=O)C1 (stereo not drawn)
  i, 0.87
- COc1ccc(CCNC(=O)C(=O)c2cn(CC(=O)N3CCOCC3)c3ccccc23)cc1OC
  i, -2.1
- Cn1c(CCNS(=O)(=O)c2ccccc2)nnc1SCc1cccnc1
  i, -2
- Cc1cc(CSc2ccccc2)ccc1NC(=O)c1ccc(C)c([N+](=O)[O-])c1
  i, 1.2

New compounds follow:
Values in the order: KCNQ2 inh, KCNQ2 inh baseline
- COC(=O)c1cccc(NC(=O)c2cccc([N+](=O)[O-])c2)c1
  i, 0.04
- O=S(=O)(c1ccc(Cl)cc1)n1ccc(-c2cccc(OCc3c(F)cccc3Cl)c2)n1
  i, -0.76
- Cc1cc(C)c(NC(=O)c2ccccc2CCc2ccccc2)c(C)c1
  i, 1.3
- CC(C)CC(NC(=O)c1ccccc1)C(=O)OCC(=O)Nc1ccc(Br)cn1 (stereo not drawn)
  i, -1.2
- Cc1ccc(S(=O)(=O)N(C)c2c(C)ccc(S(=O)(=O)N3CCN(C=O)CC3)c2C)cc1
  i, 0.77
- COc1ccc(C(=O)Nc2nc(-c3ccc([N+](=O)[O-])cc3)c(-c3ccccc3)s2)cc1
  i, 0.89
- COc1cccc(CN(C)CC(=O)Nc2c(C)cccc2C(C)C)c1
  i, 0.6
- O=C(Nc1ccc2nc(-c3cccs3)c(-c3cccs3)nc2c1)N1CCOCC1
  i, -1.2
- O=C(N/N=C/c1ccc([N+](=O)[O-])o1)c1cn(-c2ccccc2)nc1-c1ccc(F)cc1
  i, 1.4
- COC(=O)C(C)Sc1nc2c(c(=O)n1-c1ccccc1)SCC2 (stereo not drawn)
  i, -1.3
- CC(C)(C)NS(=O)(=O)c1ccc(CCC(=O)Nc2ccc3c(c2)OCCO3)cc1
  i, 0.02
- CCCCNc1ncnc2c1cnn2-c1ccc(Cl)cc1
  i, 0.01
- Cc1ccc(OS(=O)(=O)c2c(C)nn(C)c2Cl)c(C)c1
  i, -0.65
- O=C(N/N=C/c1ccc(O)c([N+](=O)[O-])c1)c1ccncc1
  i, -0.95
- Cc1cc(C)c(C(=O)COC(=O)[C@H](C)Nc2ccc(C(F)(F)F)cc2[N+](=O)[O-])c(C)c1
  -6.2*, -0.73*
- Cc1noc(C)c1C(=O)NNc1ccc(C(C)C)cc1
  i, -0.06
- Cc1ccc(S(=O)(=O)CC(=O)Nc2cccc(C)n2)cc1
  i, 1.5
- Cc1c(C(=O)NCCNc2ncc(C(F)(F)F)cc2Cl)cccc1[N+](=O)[O-]
  i, 1.3
- CCN(CC(O)Cn1c2ccccc2c2ccccc21)S(=O)(=O)c1ccc(C)cc1 (stereo not drawn)
  i, 1.1
- CCOC(=O)C1=C(N)N2C(=O)C(C)SC2=C(C(=O)OCC)C1c1cc(OC)c(OC)c(OC)c1 (stereo not drawn)
  i, -0.76
- COc1ccccc1OCCNC(=O)/C=C/c1ccc([N+](=O)[O-])cc1
  i, -0.04
- O=c1[nH]cc(S(=O)(=O)N2CCN(c3cccc(Cl)c3)CC2)c(=O)[nH]1
  i, -1.7
- CN1CCN(C(=O)CCC(=O)O)CC1
  i, 1.2
- CCC(C)N1CCN(S(=O)(=O)c2ccc(NC(C)=O)cc2)CC1 (stereo not drawn)
  i, 1.7
- Cc1cc(C)c2sc(C)[n+](CCCS(=O)(=O)[O-])c2c1
  i, -0.19
- COc1nc(NCCN2CCOCC2)nc(Nc2ccccc2)n1
  i, 0.07
- COc1ccc(-c2csc(NC(CO)c3nc4ccccc4n3Cc3ccc(C)cc3)n2)cc1 (stereo not drawn)
  i, -1.1
- CC(C)C(c1nnnn1C(C)(C)C)N1CCC(Cc2ccccc2)CC1 (stereo not drawn)
  i, -0.01
- COc1ccccc1NC(=O)CN(C)S(=O)(=O)c1cccc2cccnc12
  i, -0.03
- Cc1ccc(C(=O)NCc2ccncc2)cc1S(=O)(=O)N1CCOCC1
  i, 0.02

In the list so far, these contain an aryl thioether with sulfur outside any ring.
Values in the order: KCNQ2 inh, KCNQ2 inh baseline
- CC(C(Sc1ccccc1N)c1ccccc1)[N+](=O)[O-] (stereo not drawn)
  i, -1.6
- CCn1c(SCC(=O)Nc2nc(-c3ccc(C)cc3)cs2)nnc1-c1ccccc1
  i, 0.02
- Cc1cc(C)c(C#N)c(SCCS(=O)(=O)c2ccc(Cl)cc2)n1
  i, 0.4
- CC(C)c1c(O)nc(SCCOc2ccc(Cl)cc2)[nH]c1=O
  i, 0.09
- CCC(Sc1nc(C)cc(C)n1)C(=O)Nc1cc(C)on1 (stereo not drawn)
  i, 1.5
- CCC(=O)Nc1nnc(SCC(=O)Nc2ccc(F)cc2)s1
  i, 1
- Cc1ccccc1CSc1nnc(-c2ccccc2)c(=O)[nH]1
  i, 0.05
- CCOC(=O)CSc1nc(N)c(C(=O)Nc2ccc(N(C)C)cc2)s1
  i, 0.02
- Cn1c(CCNS(=O)(=O)c2ccccc2)nnc1SCc1cccnc1
  i, -2
- Cc1cc(CSc2ccccc2)ccc1NC(=O)c1ccc(C)c([N+](=O)[O-])c1
  i, 1.2
- COC(=O)C(C)Sc1nc2c(c(=O)n1-c1ccccc1)SCC2 (stereo not drawn)
  i, -1.3

(next part)
Molecule,KCNQ2 inh,KCNQ2 inh baseline
Cc1cccc2sc(NC(=O)C3CCN(S(=O)(=O)c4cc([N+](=O)[O-])ccc4Cl)CC3)nc12,i,-0.54
COc1cc(C(=O)N/N=C(\C)c2ccccn2)cc(OC)c1OC,i,-2.9
O=C(COc1ccc(/C=N/NC(=O)c2ccccc2Br)cc1)Nc1ccccc1,i,-1.5
Cc1cc(C)cc(C(=O)NCCCc2ccccc2)c1,i,-0.93
CC(C)CCN1C(=O)c2ccc(C(=O)Nc3ccccn3)cc2C1=O,i,-0.22
CCC(C(=O)OCC(=O)c1c(N)n(CC(C)C)c(=O)n(C)c1=O)c1ccccc1 (stereo not drawn),i,1.6
COc1ccc2cc(C(=O)C3CCCN(C(=O)c4sc(C)nc4C)C3)ccc2c1 (stereo not drawn),i,-0.63
Cn1cnc(S(=O)(=O)NCc2ccc(Br)cc2)c1,i,-0.9
COc1ccc(C(c2nnnn2C2CCCC2)N2CCN(C3CCCC3)CC2)cc1OC (stereo not drawn),i,0.01
Cc1c(C(=O)Nc2ccc(S(=O)(=O)Nc3ncccn3)cc2)oc2ccc(F)cc12,i,2.3
COc1cccc(OC)c1C(=O)Nn1c(-c2cccs2)nc2ccccc2c1=O,-9.2*,-0.53*
Cc1c(Cl)cccc1NC(CC(=O)c1ccccc1)C(=O)OCC(=O)c1cccs1 (stereo not drawn),i,-2.2
CCn1c2ccccc2c2cc(NC(=O)C(C)Oc3ccc(OC)cc3)ccc21 (stereo not drawn),-6.2*,1.7*
CN(C(=O)COC(=O)c1cncc(Br)c1)C1CCS(=O)(=O)C1 (stereo not drawn),i,0.22
Cc1ccc(NC(=O)CSc2nc3c(c(=O)[nH]2)CCC3)cc1C,i,1.3
COc1cccc(C(=O)NCc2ccc(-c3nc4ccccc4s3)cc2)c1,i,-0.29
O=[N+]([O-])c1cnc(Sc2ccncn2)s1,i,0.01
CCc1c(C)sc(NC(=O)Cc2ccccc2OC)c1C(=O)N1CCOCC1,i,0.04
CCOC(=O)CC1=Nc2ccccc2NC(=O)C1,i,0.41
CCOC(=O)C(NC(=O)c1ccccc1)(Nc1nnc(C)s1)C(F)(F)F (stereo not drawn),i,-0.91
OCCCNCc1ccc(-c2ccccc2)cc1,i,-1.4
Cc1cccc(NC(=S)N(CCN(C)C)C(C)c2cccnc2)c1 (stereo not drawn),i,1.9
Cc1ccc(Cn2c(CCC(=O)O)nc3ncccc3c2=O)cc1,i,-2.2
O=C(CN1CCN(c2ccccc2F)CC1)Nc1ccccc1F,i,-0.88
Cc1[nH]c2ccc3ncccc3c2c1C,i,0.37
Cc1ccc(CNc2nc(C)nc3sc4c(c23)CCC4)cc1,i,2
CCCCN(C)CCC(=O)Nc1ccc(OC)cc1OC,i,-1.1
Cc1ccccc1CN1CCN(Cc2ccc3cccc(F)c3n2)CC1CCO (stereo not drawn),i,-2.4

The list is partial; count on the stated rates, not on these rows.
